High-throughput results (PubChem BioAssay)
gsp ag: qHTS for Agonist of gsp, the Etiologic Mutation Responsible for Fibrous Dysplasia/McCune-Albright Syndrome: qHTS; gsp mutant cells, cAMP HTRF, 30 min; control for the full effect not named in the record; Potency, µM (doses to about 76.9 µM), without a hit: at the highest dose activation (cAMP increase), actives largely listed as activators; 340,000 compounds, 0.13% hits; active = well fitted activation curve with a large enough effect; inconclusive = small, poorly fitted or top-dose-only effect, or another doubt; inactive = no such curve, though single readings can be large or run the other way; cell line not stated here;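 also: phosphodiesterase inhibitor Ro 20-1724 added with compounds to block cAMP breakdown; potency is read from the fitted curve at half-maximal effect; nearly all actives have a fitted effect of over 60% in size; about a fifth of the inactives were tested at one dose only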
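Cells stably selected in G418 were plated at 2000/well, grown 16-24 hr, then given compounds in DMSO with the PDE inhibitor […] (300 uM solution added) for 30 min at 37C; cAMP was read by HTRF.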
TRPML1 ag: qHTS for Agonists of the Human Mucolipin Transient Receptor Potential 1 (TRPML1) | activation, % (no concentration beside the values) | Mucolipin-1 (Homo sapiens), Q9GZU1 | 410,000 compounds, 0.12% hits | TRPML1-expressing cells, Ca2+ dye fluorescence, FDSS; host cell line not named in the record; reference of the full effect not given here; in the data active = activation above about 50%; inconclusive = about 30% to 50%; inactive = below about 30%; also: 0% is about no effect; the text of the record puts the active cut at 80%
Target sequence (Q9GZU1 whole entry, looked up): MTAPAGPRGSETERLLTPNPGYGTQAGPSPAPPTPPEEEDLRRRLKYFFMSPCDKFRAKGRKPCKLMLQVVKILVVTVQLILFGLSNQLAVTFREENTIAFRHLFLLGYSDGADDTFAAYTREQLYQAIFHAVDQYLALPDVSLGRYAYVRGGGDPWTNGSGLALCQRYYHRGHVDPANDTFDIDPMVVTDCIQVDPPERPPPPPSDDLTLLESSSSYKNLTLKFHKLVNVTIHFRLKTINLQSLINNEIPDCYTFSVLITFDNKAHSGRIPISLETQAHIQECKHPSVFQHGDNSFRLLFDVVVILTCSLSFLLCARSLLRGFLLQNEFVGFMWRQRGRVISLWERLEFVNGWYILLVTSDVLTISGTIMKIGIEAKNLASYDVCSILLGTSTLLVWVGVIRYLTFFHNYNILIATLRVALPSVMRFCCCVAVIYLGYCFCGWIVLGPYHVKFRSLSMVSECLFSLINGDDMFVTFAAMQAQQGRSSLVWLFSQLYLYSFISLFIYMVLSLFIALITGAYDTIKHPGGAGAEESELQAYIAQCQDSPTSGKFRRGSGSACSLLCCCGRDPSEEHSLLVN
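Agonist activity was taken from a 110 s kinetic Ca2+ dye read on the FDSS after pinning compounds onto TRPML1-DL cells. The cells were seeded at 1,500/well with Tet inducer, incubated about 16 h, then dye-loaded at room temperature.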
TRPML1 blocker: qHTS for Inhibitors of the Human Mucolipin Transient Receptor Potential 1 (TRPML1); Mucolipin-1 (Homo sapiens), Q9GZU1; TRPML1-inducible cells, Ca2+ dye fluorescence, FDSS; hits give low values; inhibition of EC80 agonist-evoked calcium signal; activity change, negative = inhibition, % (test concentration not listed); 390,000 compounds, 0.02% hits; in the data active means activity change below about -50%; inconclusive means about -30% to -50%; inactive means above about -30%;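 also: stimulus is agonist 54-4 at its EC80 concentration; % is scaled to controls: 0 for no effect and ±100 for the full control effect; compound concentration not given in the record; the text of the record puts the active cut at -80%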
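Calcium fluorescence in TRPML1-DL cells induced overnight with Tet: a 110 s read after compound pin addition, then a 110 s antagonist read after challenge with 54-4 at 4 uM final (EC80).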
ClpP mod: qHTS Assay for Activators of ClpP. Potency, µM (titrated, usually from 57.5 µM), for inactives: at the top dose activity change, negative = active. purified B. subtilis ClpP, FRET peptide cleavage, 20 min. 340,000 compounds, 1.9% hits. ATP-dependent Clp protease proteolytic subunit (Bacillus subtilis (strain 168)), P80244. AID 651965, 2013; active = well fitted falling curve with a large enough effect; inconclusive = small, poorly fitted or top-dose-only effect; inactive = no such curve, though single readings can be large or run the other way; also: potency is read from the fitted curve at half-maximal effect; the source files actives as falling curves though it sought activators and does not explain the sign; nearly all actives have a fitted effect of over 65% in size; many hits overshoot -100%
Target sequence (P80244 whole entry, looked up): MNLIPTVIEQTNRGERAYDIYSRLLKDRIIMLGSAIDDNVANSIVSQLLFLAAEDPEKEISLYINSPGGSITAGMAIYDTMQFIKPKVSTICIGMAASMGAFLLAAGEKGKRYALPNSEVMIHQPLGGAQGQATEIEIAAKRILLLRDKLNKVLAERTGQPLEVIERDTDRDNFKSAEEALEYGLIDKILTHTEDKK
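Buffer: 100 mM Tris/HCl pH8, 100 mM KCl, 0.05% low protease BSA, 2.5% glycerol, 0.01% Tween-20. ClpP 10 microg/mL final; 20 min RT; delta FRET normalized to ADEP and DMSO controls.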
gsp antag: qHTS for Antagonists of gsp, the Etiologic Mutation Responsible for Fibrous Dysplasia/McCune-Albright Syndrome: qHTS | AID 624288, 2012 | 340,000 compounds, 0.4% hits | Potency, µM (doses to about 76.9 µM), for inactives: top-dose activity change, negative = inhibition, hits mostly inhibitors | gsp-mutant cells, cAMP HTRF, 30 min; control for the full effect not named in the record; active = falling curve of any shape with a large fitted effect; inconclusive = falling curve, mostly with a smaller effect; inactive = flat or rising curve; cell line not stated here;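 also: intracellular cAMP measured with PDE inhibitor Ro 20-1724 present during compound exposure; potency is read from the fitted curve at half-maximal effect; % is scaled to controls: 0 for no effect and ±100 for the full control effect; nearly all actives have a fitted effect of over 65% in size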
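HTRF cAMP measurement after 30 min RT detection following 30 min, 37C compound treatment alongside […] (added as 300 uM solution) in G418-selected cells seeded at 2000/well and grown 16–24 h.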
Menin-MLL FL inh: qHTS Assay for Inhibitors Targeting the Menin-MLL Interaction in MLL Related Leukemias: Competition With Fluorescein Labeled MLL-derived Peptide; Fluorescence polarization, fluorescein-MLL peptide displacement from menin; FP activity change, % at 61.4 µM; 290,000 tested, under 10 active; inconclusive = falling polarisation curve, or a change in total fluorescence; inactive = total fluorescence flat and polarisation flat or rising; no compound was filed as active; the % refers to the polarisation; negative = inhibition;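 also: % of control where 0% means no effect; inhibitors lower the polarisation; unlabelled MLL peptide was the positive control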
Starred values were filed as active, the others as inactive; ? = inconclusive; · = not tested or not shown; & = joins results of further samples; [ ] = remark or other dose.

SMILES	gsp ag	TRPML1 ag	TRPML1 blocker	ClpP mod	gsp antag	Menin-MLL FL inh
CCOc1ccccc1N(C(=O)c1ccccc1Cl)C1=NC(C)(C)CS1	0%[15.4 µM]	0.0	-23	0.6%	-3%	-2.4
COC(=O)c1ccc(/C=C/c2c(-c3ccsc3)oc3ccc(N4CCOCC4)cc23)cc1	·	-0.8	4	?	3%	4.9
COc1ccc(S(=O)(=O)N2CCCCCC2)cc1C(=O)N(C)CC(=O)Nc1ccc(Cl)c(Cl)c1	22%[15.4 µM]	0.4	-7	·	-21%	·
COc1cccc(C(=O)CN2CCN(S(=O)(=O)c3cccc([N+](=O)[O-])c3)CC2)c1	-10%	0.0	-18	-5.3%	2%	1.5
Cc1ccc(S(=O)(=O)N(C)CC(=O)O/N=C(\N)c2cccc([N+](=O)[O-])c2)cc1	-2%	1.2	39	-0.5%	?	-2.4
O=C(O)CCCNS(=O)(=O)Cc1ccccc1	-11%	0.1	1	-0.9%	11%	4.8
COC(=O)c1sc(NC(=O)c2ccc3c(c2)OCO3)c(C#N)c1C	24%[15.4 µM]	-0.1	-20	·	-3%	·
COc1ccc(C(=O)NCc2c(CC(C)C)oc(C)c2C(=O)O)cc1	3%	1.9	22	-2.8%	-17%	1.3
CC(=O)c1sc(-c2ccccc2)nc1C	?	0.5	-11	3.4%	1%	-1.4
COc1ccc(-c2noc(CSc3nnc(-c4ccccc4)n3-c3ccc(F)cc3)n2)c(OC)c1	·	2.6	-7	0.9%	·	·
O=C(CN1CCCCCCC1)N/N=C/c1ccc(F)c(F)c1	-54%[inhibitor]	0.2	-22	-9.1%	18%	6.3
CCC(=O)Nc1cc(C)c(NC(=O)C23CC4CC(CC(C4)C2)C3)cn1	11%	0.3	2	1.2%	-2%	-8.7
COc1ccc2nc(NC(=S)N(C)C)sc2c1	-80%	-0.4	27	-0.5%	-5%	7.2
O=C(Nc1ccc(F)cc1F)N1CCN(C(=O)c2ccco2)CC1	6%	0.2	-13	-0.4%	-7%	0.6
CCN(CC)CCCNc1cc(C(F)(F)F)c(C#N)c2nc3ccccc3n12	12%[15.4 µM]	0.2	-4	0.7%	-4%	?
C/C(=N\NC(=O)CC(C)C)c1ccc(Cl)c(Cl)c1	-33%[inhibitor]	1.3	8	2.7%	-9%	1.0
COc1cc(-c2noc(CCC(=O)Nc3cc(C)ccc3C)n2)cc(OC)c1OC	·	-1.0	-8	1.0%	·	·
COc1cccc(OC)c1C(=O)Nc1cccc(-c2ccc(N3CCOCC3)nn2)c1	1%[15.4 µM]	-0.5	3	·	3%	·
CCOc1ccccc1Cn1c(=O)oc2ccc(C)cc21	-86%[inhibitor]	3.4	-6	25µM*	-12%	1.4
CCOc1ccccc1NC=C1C(=O)OC(C)(C)OC1=O	0%	2.2	-13	-6.3%	8%	-5.4
COc1cc(OC)cc(C(=O)N2CCN(C(=O)c3cccs3)CC2)c1	6%[15.4 µM]	0.3	11	·	-6%	·
Cc1c(CCC(=O)O)c(=O)oc2cc(OCc3ccccc3F)ccc12	?	1.2	-10	·	-8%	-5.7
CC(C)Oc1c(Br)cc(Br)cc1/C=N/NC(N)=S	-3%	3.2	11	-0.3%	-15%	-1.4
CC12CCC=CC1C(c1cccc([N+](=O)[O-])c1)N(Cc1ccccc1)C2=O (configuration not stated)	·	0.4	-7	·	·	-5.4
O=C(NCC1CCCO1)c1cccc(S(=O)(=O)Nc2ccccc2Cl)c1 (configuration not stated)	14%	-0.8	3	-0.8%	·	·
SMILES	gsp ag	TRPML1 ag	TRPML1 blocker	ClpP mod	gsp antag	Menin-MLL FL inh
COc1cc(OC)c(C2N(c3cc(C)on3)C(=O)C3CCCN32)cc1OC (configuration not stated)	-48%[inhibitor]	0.4	-4	-3.1%	11%	3.0
CCCCC(=O)Nc1ccc2nc(SCC(=O)N3CCc4ccccc43)sc2c1	·	-0.2	29	-4.2%	·	·
COc1cc(N=c2ssnc2Cl)cc(OC)c1	18%	0.2	-3	0.4%	-16%	9.8
Cc1nc(SCCOc2ccc(Cl)cc2)[nH]c(=O)c1Cc1ccccc1	·	-0.5	-17	0.3%	·	·
COC(=O)c1ccc(/C=C/c2ccc3cccc(OC(C)=O)c3n2)cc1	-41%[inhibitor]	-0.1	10	?	?	-3.1
CCOc1ccccc1NC(=O)CSc1nnnn1C1CCCC1	5%[15.4 µM]	-0.4	-16	·	-6%	·
CCCCC(=O)Nc1ccnc(-c2cccnc2)n1	-44%[inhibitor]	-0.5	0	0.6%	-2%	3.6
CC(C)(C)C1CCC(C(=O)NCC(c2cccs2)N2CCOCC2)CC1 (configuration not stated)	15%	0.2	10	-3.3%	1%	·
Cc1ccc(Oc2ncccc2/C=N/OCc2ccc(Cl)c(Cl)c2)cc1	-1%	1.0	8	-15%	6%	-0.2
Cc1c(Br)c([N+](=O)[O-])nn1CC(=O)NCc1ccccc1	-33%[inhibitor]	·	·	-1.4%	13%	-2.6
COC(=O)C(NC(=O)C(NC(=O)C1CCC(C)CC1)C(C)C)C(C)C (configuration not stated)	22%[15.4 µM]	1.9	11	·	0%	·
C/C(=N\Nc1nc(C)cc(=O)[nH]1)C1CC1	-3%	-0.5	-6	0.7%	6%	4.7
Cc1ccc(/C(O)=C2\C(=O)C(=O)N(C)C2c2cccc([N+](=O)[O-])c2)cc1 (configuration not stated)	-19%	-0.1	-10	·	-4%	9.1
COc1ccc(-c2nc3ccccc3c(=O)n2CCOc2c(C)cccc2C)cc1	4%[15.4 µM]	0.3	16	·	2%	3.9
COc1ccc(Oc2ncnc3c2ncn3Cc2ccccc2)cc1	?	1.9	7	-1.5%	2%	4.6
Cn1c(Cn2nnc3ccccc32)nnc1SCC(=O)c1ccccc1F	19%	-0.6	28	0.6%	9%	-1.9
Cc1ccc(C)c2[nH]c(=O)c(CCNC(=O)c3ccc(S(=O)(=O)N4CCOCC4)cc3)cc12	?	0.4	6	-13%	-17%	-1.5
CCOC(=O)Cn1nnc(-c2cccc(OC)c2)n1	-14%	-0.2	10	0.9%	6%	-1.2
CC(=O)Nc1ccc(C=NNC(=O)c2ccc(NS(=O)(=O)c3cccs3)cc2)cc1	-10%[15.4 µM]	0.1	6	?	-5%	·
CCN(CC)C(=O)C12CC3CC(CC(Br)(C3)C1)C2	11%	0.9	-12	·	5%	-1.5
O=C(CSc1nnc(COc2ccc(Cl)cc2)o1)Nc1nccs1	18%	0.3	0	-0.3%	·	·
CCO[C@@H]1OC(C(=O)N2CCCCCCC2)=C[C@H](c2ccc(C(F)(F)F)cc2)[C@H]1CCCO	·	1.7	-18	-2.2%	-7%	1.6
COc1ccc(F)c(-c2nc(CN3CCN(C(=O)c4ccco4)CC3)c(C)o2)c1	-32%	0.0	-9	-4.0%	-3%	·
COc1ccc(/C=N/NC(=O)C(=O)N2CCCCCC2)cc1	?	-0.4	11	·	5%	-1.0
CCCn1c(=N)c(S(=O)(=O)c2ccccc2)cc2c(=O)n3cccc(C)c3nc21	9%	2.5	25	·	-7%	1.0

In a second layout: entries from further up.
Compound | gsp ag | TRPML1 ag | TRPML1 blocker | ClpP mod | gsp antag | Menin-MLL FL inh
CCOc1ccccc1NC(=O)CSc1nnnn1C1CCCC1 | 5%[15.4 µM] | -0.4 | -16 | · | -6% | ·
COc1ccc(Oc2ncnc3c2ncn3Cc2ccccc2)cc1 | ? | 1.9 | 7 | -1.5% | 2% | 4.6

Retrieved one by one from the list above, three records:
SMILES	gsp ag	TRPML1 ag	TRPML1 blocker	ClpP mod	gsp antag	Menin-MLL FL inh
Cc1ccc(/C(O)=C2\C(=O)C(=O)N(C)C2c2cccc([N+](=O)[O-])c2)cc1 (configuration not stated)	-19%	-0.1	-10	·	-4%	9.1
Cc1c(Br)c([N+](=O)[O-])nn1CC(=O)NCc1ccccc1	-33%[inhibitor]	·	·	-1.4%	13%	-2.6
COc1cc(N=c2ssnc2Cl)cc(OC)c1	18%	0.2	-3	0.4%	-16%	9.8

In the list so far, 2 contain a cyano group:
SMILES	gsp ag	TRPML1 ag	TRPML1 blocker	ClpP mod	gsp antag	Menin-MLL FL inh
COC(=O)c1sc(NC(=O)c2ccc3c(c2)OCO3)c(C#N)c1C	24%[15.4 µM]	-0.1	-20	·	-3%	·
CCN(CC)CCCNc1cc(C(F)(F)F)c(C#N)c2nc3ccccc3n12	12%[15.4 µM]	0.2	-4	0.7%	-4%	?

One compound at a time (already shown). Screens in order: gsp ag | TRPML1 ag | TRPML1 blocker | ClpP mod | gsp antag | Menin-MLL FL inh
Record of `C/C(=N\Nc1nc(C)cc(=O)[nH]1)C1CC1` → -3% | -0.5 | -6 | 0.7% | 6% | 4.7
Record of `COc1ccc(F)c(-c2nc(CN3CCN(C(=O)c4ccco4)CC3)c(C)o2)c1` → -32% | 0.0 | -9 | -4.0% | -3% | ·

(listing goes on)
SMILES	gsp ag	TRPML1 ag	TRPML1 blocker	ClpP mod	gsp antag	Menin-MLL FL inh
CCS(=O)(=O)c1nc(S(=O)(=O)c2ccc(C)cc2)c(NCc2ccccn2)s1	3%	-0.2	1	-2.1%	3%	-1.6
CN(C)CCOc1ccc(/C(=C(/CCCl)c2ccccc2)c2ccccc2)cc1	·	-0.6	40	-0.6%	-1%	5.6
CC(C)CCN1C(Nc2ccccc2)=NC[C@@H]1Cc1ccccc1	7%	0.1	17	-0.1%	8%	0.2
Cc1ccc2c(c1)cc1c(=O)n(CC(=O)N(C)c3ccccc3)nc(C)n12	25%	-0.9&-0.6	16&-22	?	3%	·
CCc1ccc(C(=O)CCC(=O)Nc2cccc(S(=O)(=O)N3CCCCC3)c2)cc1	-60%[inhibitor]	-0.3	4	-3.9%	0%	·
CCOC(=O)c1c(NC(=O)c2cc(CC)on2)sc(C)c1C	·	-1.1	51	-1.5%	·	·
Cc1ccc(-c2nnc(Nc3ccc(F)cc3)c3ccccc23)cc1S(=O)(=O)N1CCN(C)CC1	·	2.3	1	-0.1%	·	·
O=[N+]([O-])c1ccccc1S(=O)(=O)N1CCCCC1	-23%	1.4	18	-4.3%	8%	1.3
COc1cc(/C=C2\SC(=O)N(c3ccc(O)cc3)C2=O)cc(OC)c1OC	-23%[15.4 µM]	0.2	2	·	-25%	4.2
CCOc1cc(C(=O)CCC(=O)OCC(=O)N2c3ccccc3NC(=O)C2(C)C)ccc1O	-8%	0.8	-2	-2.9%	?	0.8
